ugtP null kill = growth inhibition of ugtP-null S. aureus, primary screen, RN4220 ugtP deletion, OD600; 16 h; some inactives read as strong as hits; growth inhibition, % (concentration not given with the values); 0.54% of 330,000 active; AID 1259309, 2017;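 active = z-score under -3 and OD600 up to 0.15 on both plates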;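 also: plate controls were untreated wells for no effect and antibiotic for full effect; wells of about 80 µL received 100 nL stock; the first replicate is given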
Bead autofluor = compound fluorescence in toxin protease inhibitor counterscreen | compound autofluorescence counterscreen, microsphere flow cytometry; stronger effect = higher value | fluorescence intensity (no concentration beside the values) | 3.1% of 360,000 active | AID 624483;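 active = at least 3 SD above the mean of all compounds, about 16000 in these data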;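 also: 100 nL of 1 mM stock went into each well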
PrP 5UTR inh = inhibition of PrP 5' UTR reporter expression | AID 488862, 2010 | cell-based PrP 5' UTR mRNA reporter, plate reader | 0.35% of 340,000 active | inhibition, % (concentration not given with the values);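 active = every replicate at 50% or more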;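 also: 0 = median of the neutral control wells; tested in H4 reporter cells; numbers are from one replicate; inactives centre near -14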
Mtb hypoxia rep = PubChem AID 1159583; 0.1% of 300,000 active; fluorescence inhibition, % (test concentration not listed); M. tuberculosis hypoxia-regulated fluorescent reporter, fluorescence;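 active = 35 to 45% if threefold the growth effect, above 45% if 1.5-fold the growth effect; inactive = the rest, general growth blockers included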;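 also: wells of about 50 µL received 100 nL stock; 0% = vehicle wells and 100% = reference inhibitor wells; whole bacteria with a GFP reporter of the hypoxia response; strong numbers were not always called active; many hits fall short of the cut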
BJeLR lethal = MLPCN primary cell-based screen for lethality selective to Ras in HRASV12 cells; BJeLR (HRASV12) viability, CellTiter-Glo ATP luminescence, 48 h; reference of the scale not given here; inhibition, % (no concentration beside the values); 0.17% of 300,000 active;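 active = replicate mean above 50%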;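 also: 50 nL library stock added to about 25 µL; numbers are from one replicate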
RN4220 kill = growth inhibition of S. aureus RN4220, primary screen, OD600; 16 h; inhibition, % (no concentration beside the values); 0.33% of 330,000 active;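 active = z-score of -3 or lower and OD600 up to 0.18 on both plates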;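 also: plate controls were untreated cells for no effect and reference antibiotic for full effect; stock transfer was 100 nL into about 80 µL; one replicate is shown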
Mtb hypoxia rep growth = further read-out of Mtb hypoxia rep, marked with its call; growth inhibition, %; measured here: M. tuberculosis growth (absorbance);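 0% = vehicle and 100% = reference antibiotic; read after six days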
Numbers without * were called inactive; . = no result given; & = joins results of further samples.

SMILES	ugtP null kill	Bead autofluor	PrP 5UTR inh	Mtb hypoxia rep	Mtb hypoxia rep growth	BJeLR lethal	RN4220 kill
COC(=O)N/N=C/c1cn(Cc2ccc(F)cc2)c2ccccc12	.	4307	1	.	.	-16	.
CCOC(=O)c1cc(=O)n(Cc2ccccc2C)c2ccccc12	20	20854*	-5	11	-2	-14	10
C=CCn1c(SCC(=O)c2[nH]c(C)c(C(=O)OCC)c2C)nc2scc(-c3ccc(OC)cc3)c2c1=O	-7	2575	8	3	1	-5	3.1
Cc1ccc(C2SCC(=O)N2Cc2cn3ccsc3n2)o1 (stereo unspecified)	-2	4920	3	.	.	7	0.9
Cc1ccc(S(=O)(=O)NCCN2CCOCC2)cc1C	3	11402	-8	5	10	8	1.5
CC1CCCCC1NC(=O)CSc1nnc(COc2ccc(Cl)cc2)o1 (stereo unspecified)	8	4088	-25	-1	2	-7	0.9
COC(=O)CCC/C=C1/SCC(NC(=O)c2ccccc2)C1=O (stereo unspecified)	-1	10442	-18	3	2	0	-1.1
COc1ccc(Nc2cc(C)c3ccc(O)cc3n2)cc1	9	4488	-40	-14	8	16	-0.4
COc1ccc(OC)c(S(=O)(=O)N2CCC(C(=O)NCc3cccnc3)CC2)c1	12	3132	-14	7	5	-16	4.2
CN(C)c1nc(Oc2ccc(=O)[nH]n2)nc(N2CCCCC2)n1	-1	8894	-17	6	11	2	4.4
Cc1ccc(S(=O)(=O)N(Cc2cc3ccccc3[nH]c2=O)CC2CCCO2)cc1 (stereo unspecified)	-5	3244	11	-3	-3	-6	-3.8
Cc1ccc(C)c(OCC(=O)O/N=C(\N)c2cccc([N+](=O)[O-])c2)c1	11	3786	-12	11	4	0	1.2

An excerpt of these results, with values under each structure.
Value order – ugtP null kill	Bead autofluor	PrP 5UTR inh	Mtb hypoxia rep	Mtb hypoxia rep growth	BJeLR lethal	RN4220 kill
> COC(=O)N/N=C/c1cn(Cc2ccc(F)cc2)c2ccccc12
→ .	4307	1	.	.	-16	.
> CCOC(=O)c1cc(=O)n(Cc2ccccc2C)c2ccccc12
→ 20	20854*	-5	11	-2	-14	10
> C=CCn1c(SCC(=O)c2[nH]c(C)c(C(=O)OCC)c2C)nc2scc(-c3ccc(OC)cc3)c2c1=O
→ -7	2575	8	3	1	-5	3.1
> Cc1ccc(C2SCC(=O)N2Cc2cn3ccsc3n2)o1 (stereo unspecified)
→ -2	4920	3	.	.	7	0.9
> Cc1ccc(S(=O)(=O)NCCN2CCOCC2)cc1C
→ 3	11402	-8	5	10	8	1.5
> CC1CCCCC1NC(=O)CSc1nnc(COc2ccc(Cl)cc2)o1 (stereo unspecified)
→ 8	4088	-25	-1	2	-7	0.9
> COC(=O)CCC/C=C1/SCC(NC(=O)c2ccccc2)C1=O (stereo unspecified)
→ -1	10442	-18	3	2	0	-1.1
> COc1ccc(Nc2cc(C)c3ccc(O)cc3n2)cc1
→ 9	4488	-40	-14	8	16	-0.4
> COc1ccc(OC)c(S(=O)(=O)N2CCC(C(=O)NCc3cccnc3)CC2)c1
→ 12	3132	-14	7	5	-16	4.2
> CN(C)c1nc(Oc2ccc(=O)[nH]n2)nc(N2CCCCC2)n1
→ -1	8894	-17	6	11	2	4.4

Continuation:
SMILES	ugtP null kill	Bead autofluor	PrP 5UTR inh	Mtb hypoxia rep	Mtb hypoxia rep growth	BJeLR lethal	RN4220 kill
O=C(c1ccc(Cl)cc1)c1ccc(Oc2cc(NN3CCCCC3)c([N+](=O)[O-])cc2[N+](=O)[O-])cc1	3	3922	6	19	7	7	3.9
Cc1c(N2C(=O)c3ccc(Br)cc3C2=O)c(=O)n(-c2ccccc2)n1C	-5	3820	-102	5	2	5	2.3
COC(=O)CC(NC(=O)c1ccc(C)cc1)c1ccccc1 (stereo unspecified)	1	5765	-39	5	10	-4	9.4
CSc1ncc(Sc2ccccc2)c(C(=O)O)n1	-5	3011	-7	-9	-5	3	16
O=C(NN=Cc1ccc(Br)o1)C1COc2ccccc2O1 (stereo unspecified)	1	.	.	8	12	.	-0.4
COCCCNC(=O)c1ccc(NS(C)(=O)=O)cc1	3	3706	0	.	.	6	0.0
COc1ccc(OC)c(NC(=O)Cn2nc(C)c3ccccc3c2=O)c1	2	3894	-8	6	14	-4	-1.3
COc1cc(NS(=O)(=O)c2ccc(NC(=S)NC(C)=O)cc2)nc(OC)n1	5	5576	.	0	4	-4	1.3
Cc1oc2ccc(O)c(CN3CCOCC3)c2c1C(C)O (stereo unspecified)	3	2820	-6	.	.	-2	0.1
COc1ccc(-c2c(-c3cc(OC)cc(OC)c3)n(C)c3ccc(-c4ccc(S(N)(=O)=O)cc4)cc23)cc1	-16	3425	-51	5	6	.	-16
O=C(Nc1ccccc1C(=O)NC(Cc1ccccc1)C(=O)NC1CCCCCC1)c1ccccc1 (stereo unspecified)	3	4146	-37	.	.	3	-3.6
Cc1ccc(S(=O)(=O)NC2=C(N3CCN(c4ccccc4F)CC3)C(=O)c3ccccc3C2=O)cc1	.	3323&2787	-32&-45	.	.	-1	.
COc1cc2c(cc1OC)CN(C(=O)Cc1c(F)cccc1Cl)CC2	5	4720	4	-8	7	-8	1.3
Cc1ccc(NC(=O)c2cncc(Br)c2)c([N+](=O)[O-])c1	-2	1940	-6	9	7	-6	2.5
CCOC(=O)N1CCN(C(=O)c2ccc(S(=O)(=O)NCc3ccco3)cc2)CC1	0	4435	-5	-3	12	27	0.7
COc1cc(C=NNC(=O)c2ccc3nc[nH]c3c2)cc(OC)c1OC	-1	.	.	.	.	.	0.9
CC(C)[C@H](NC(=O)c1ccc(Cl)c([N+](=O)[O-])c1)C(=O)O	0	4095	-22	8	-6	10	3.0
COc1ccc(Cl)cc1NC(=O)C(C)N1CCN(c2ccccn2)CC1 (stereo unspecified)	0	3255	-6	6	4	-1	-1.6
Cc1ccc2nc3c(c(C(=O)OCC(=O)NC4CCS(=O)(=O)C4)c2c1)CCCC3 (stereo unspecified)	6	3479	-40	17	3	4	2.1
O=C(NCc1ccccc1)c1ccc2c(c1)OCCO2	7	3358	-28	21	22	-2	0.2
Cc1ccc(CNC(=O)Nc2ccc(OC(F)(F)F)cc2)n1C	-12	3938	-28	-7	-11	4	-6.5
NS(=O)(=O)c1cccc(NC(=O)COC(=O)CCSc2ccccc2)c1	4	6924	-28	2	-2	7	6.1
CC(C(=O)Nc1ccccc1C(=O)N1CCOCC1)N(c1ccc(Cl)cc1)S(C)(=O)=O (stereo unspecified)	3	2125	-22	-11	0	0	2.4
Cc1csc(NC(=O)CSC2=NS(=O)(=O)c3cc(F)ccc3N2)n1	3	5302	-13	-13	7	8	-2.1
CCN(C(=O)CN1CCN(S(=O)(=O)c2ccccc2C(F)(F)F)CC1)c1c(N)n(Cc2ccccc2)c(=O)[nH]c1=O	0	7305	-2	-3	14	11	-0.6
COc1ccc(Cc2nc3ccc(C(=O)NCCc4ccncc4)cc3o2)cc1OC	0	5830	-11	2	5	7	-1.0
CCC1(c2ccccc2)NC(=S)N(c2cccc(C)c2C)N1 (stereo unspecified)	18	2135	-1	17	12	-15	4.1
COc1ccc(CN2CC[C@H]3C=CC[C@@H](C(=O)Nc4ccc(Cl)c(C(F)(F)F)c4)[C@H]3C2=O)cc1OC	.	4361	10	.	.	-7	.
CC(=O)Nc1ccccc1NS(=O)(=O)c1cccc([N+](=O)[O-])c1	6	3160	-13	7	4	-3	9.3
O=C(N[C@H]1CCC(=O)N([C@H](CSc2ccccc2)Cc2ccccc2)CC1)OCc1ccccc1	.	3962	-25	.	.	7	.
CCn1c(SC(C)C(=O)NC2CCCC2)nc2cc(S(N)(=O)=O)ccc21 (stereo unspecified)	8	2957	2	4	-5	.	6.8
CCC(C)NC(=O)C1(N2C(=O)c3ccccc3C2=O)CCCC1 (stereo unspecified)	5	3910	-16	4	8	.	1.3
O=C(NCCCN1CCOCC1)c1cn(-c2ccccc2)nc1-c1cccs1	-5	2855	-29	.	.	8	1.0
c1ccc(N2CC3CCc4ccccc4C3=N2)cc1 (stereo unspecified)	-2	3835	-69	-2	-1	2	4.7
COc1ccc(Cn2c(-c3ccccc3C)nc3c(c(=O)c4ccccc4n3C)c2=O)cc1	-2	4314	-24	3	7	6	5.9
O=c1cc(-c2ccccc2)c2cc3c(cc2[nH]1)OCCO3	-1	4539	-15	1	5	5	3.6
Cc1occc1C(=O)N1CCN(C(c2ccccc2)c2ccccc2)CC1	3	22960*	-11	-6	4	-1	-3.4
CC(NC(=O)C(=O)N/N=C/c1ccccc1)c1ccccc1 (stereo unspecified)	.	4281	-21	.	.	8	.
CCOC(=O)CN1C(=O)C2(OCCCO2)c2cc(Br)ccc21	12	3241	-12	8	11	-6	6.1
COc1ccc(OC)c(N2Cc3cc(C)c(C)cc3C2)c1	3	8400	-22	12	4	-7	7.6
S=C(NN=Cc1ccc(Cl)cc1)N1CCOCC1	-2	.	.	4	5	.	0.8
Cc1c(C(=O)N2CCN(c3ccc(C(F)(F)F)cn3)CC2)oc2ccccc12	26	4946	1	13	14	3	-7.9
CN(CCO)c1nc(N)c2c(N)nc3c(c2c1C#N)CC(=O)N3C1CCCC1	-6	.	.	-2	-1	2	-17
NC(=O)c1ccc(-c2ncc(-c3ccccc3)o2)cc1	-6	18854*	-172	.	.	5	-3.7
C[C@@]12CCC=CC1C(c1ccoc1)N(Cc1ccccc1)C2=O (stereo partly specified)	5	.	.	-2	9	.	7.9
O=C1NCCOC(=O)C(Cc2ccc(F)cc2)CCC=CCC1CC(=O)N(CCO)Cc1ccccc1 (stereo unspecified)	-3&-3&-4	.	.	-4&8&5	-1&6&4	.	-0.8&2.3&4.1
Cc1ccc(NS(=O)(=O)c2ccc(C(=O)NCC(c3ccco3)N(C)C)cc2)cc1 (stereo unspecified)	8	5202	-5	2	9	11	1.2
N/C(=N\N=Cc1ccc(Br)cc1)NN=Cc1ccc(Br)cc1	100*	.	.	-17	3	.	101*
O=c1[nH]c(C2CCCN(S(=O)(=O)c3ccccc3)C2)nc2c1nnn2Cc1ccc(OC(F)(F)F)cc1 (stereo unspecified)	12	4963	-13	5	-1	-11	5.6
O=C(Cc1ccc(Br)cc1)NC1CCSC1=O (stereo unspecified)	5	5189	-19	10	11	-3	1.3
Cc1ccc(C(=O)N[C@H](C(=O)OCC(=O)Nc2cccc(S(N)(=O)=O)c2)C(C)C)cc1	2	4425	-7	20	15	-2	2.7
Cc1ccc(SCc2cn3c(C)csc3n2)cc1	-5	7073	-109	-6	-4	0	-0.2
CCN(CC)C(=O)C(=O)Nc1ccc(F)c(Cl)c1	2	2480	-22	3	1	0	3.9
CC(Oc1ccccc1F)C(=O)NNC(=O)c1cc2ccccc2o1 (stereo unspecified)	6	4473	-16	-1	6	13	8.5
COc1cc2c(cc1OC)C(c1cc(Br)ccc1F)N(C(=O)CCl)CC2 (stereo unspecified)	.	4316	-28	.	.	58*	.
Cc1nnc(SCC(=O)NCc2ccc(F)cc2)[nH]c1=O	3	2522	-1	-2	6	3	1.8
COC(=O)C1=C(CSc2nc3ccccc3s2)NC(=O)NC1c1ccc(F)cc1 (stereo unspecified)	-9	1861	-10	-8	1	3	0.3
CCN/C=C(\C#N)S(=O)(=O)c1ccc(Br)cc1	5	5358	-11	-16	-20	-7	2.4
COc1ccc(NS(=O)(=O)c2ccc(N3CCCCC3)c(N)c2)cc1	-4	3933	-12	7	4	.	1.2
O=C(NCC1CCCO1)c1ccc(NC(=O)C2CC=CCC2C(=O)O)cc1 (stereo unspecified)	-11	4256	-12	.	.	0	1.1
Next results follow:
SMILES	ugtP null kill	Bead autofluor	PrP 5UTR inh	Mtb hypoxia rep	Mtb hypoxia rep growth	BJeLR lethal	RN4220 kill
O=C(O)CCCC(=O)Nc1ccccc1SCCS(=O)(=O)c1ccc(Cl)cc1	1	4034	-17	9	-1	1	0.0
Cc1cc(Cl)ccc1OCC(=O)NCCOc1nc(N2CCCCC2)nc(N2CCOCC2)n1	-4	8778	-38	4	-4	-4	5.1
COCc1c(C(=O)NN=Cc2ccc(C)o2)nnn1-c1nonc1N	-3	.	.	0	-2	.	7.4
COc1cc(C(=O)NCc2nnc(SCC(=O)Nc3cc(C)on3)o2)cc(OC)c1OC	14	4291	-14	2	2	6	1.4
CC(C)(CNC(=O)c1ccc(S(=O)(=O)Nc2cccc(C(F)(F)F)c2)cc1)N1CCOCC1	6	7739	-15	7	6	.	1.9
O=S(=O)(c1ccc(N2CCOCC2)nc1)N(Cc1ccccn1)Cc1ccccn1	4	6467	-9	8	1	4	1.5
Cc1cc(-c2onc(C)c2C(=O)Nc2ccc(C(F)(F)F)cc2)no1	.	3731	-7	.	.	-8	.
O=C(CSc1ncn[nH]1)CSc1ncn[nH]1	1	3072	-29	11	5	0	3.0

Assay outcomes as filed in PubChem.
